Compound activity from PubChem.
Beta apoptosis: beta cell apoptosis inhibition | INS-1E cytokine-induced death, ATP luminescence, 48 h; percent of positive-control rescue, neutral wells zero | protection from apoptosis, % (test concentration not listed) | 300,000 tested, 0.8% active;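 active = all replicates at 75% or more, or half of them and the mean; inconclusive = half reach 75% but not the mean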;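 note: 0% = cytokine-treated negative control wells and 100% = positive control rescue; higher means more ATP so stronger rescue from cytokine killing; wells of about 40 µL received 100 nL stock; the first replicate is given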
UCH37 inh: human UCH37 deubiquitinating enzyme inhibition; Q9Y5K5; purified proteasome/UCH37, Ub-AMC cleavage fluorescence; inhibition, % (no concentration beside the values); 330,000 tested, 0.33% active; AID 588478;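 active = mean of two replicates above 20%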;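 note: 0% = compound-free wells with enzyme and 100% = wells lacking proteasome; stock transfer was 100 nL into about 20 µL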
Target sequence (Q9Y5K5 whole entry, looked up): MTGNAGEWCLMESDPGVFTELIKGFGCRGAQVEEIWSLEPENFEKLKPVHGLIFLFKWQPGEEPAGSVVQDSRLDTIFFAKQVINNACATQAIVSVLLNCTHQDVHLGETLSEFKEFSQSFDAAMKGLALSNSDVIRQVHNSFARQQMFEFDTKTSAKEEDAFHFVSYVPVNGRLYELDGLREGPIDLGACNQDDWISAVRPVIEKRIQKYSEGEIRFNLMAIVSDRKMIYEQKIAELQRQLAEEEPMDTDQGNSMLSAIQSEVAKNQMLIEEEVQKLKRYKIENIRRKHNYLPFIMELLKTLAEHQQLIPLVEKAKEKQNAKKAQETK
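system = Proteasome-associated human UCH37 deubiquitinase | amount = 0.15 nM proteasome as dispensed | medium = pH 7.4 Tris-HCl (50 mM) with ovalbumin, ATP-MgCl2, DTT | incubation = 30 min preincubation with enzyme, 25 min cleavage at room temperature | detection = AMC fluorescence 355/460 nm | read-out basis = percent inhibition | controls = no-proteasome and no-compound wells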
AF4-AF9 inh: MLL-AF4/AF9 protein interaction inhibition; AlphaScreen, biotin-AF4 peptide binding to FLAG-AF9; inhibition, % at 10 µM; P42568; 350,000 tested, 0.47% active;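 active = every replicate reaching a set inhibition limit, whatever the replicate mean, cut at about 25% in these data; inconclusive = mean inhibition reaches that limit but some replicates miss it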;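 note: 0% = plate neutral control median and 100% = total signal loss; the record names both 10 and 1 µM as test concentration; the first replicate is given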
Target sequence (P42568 whole entry, looked up): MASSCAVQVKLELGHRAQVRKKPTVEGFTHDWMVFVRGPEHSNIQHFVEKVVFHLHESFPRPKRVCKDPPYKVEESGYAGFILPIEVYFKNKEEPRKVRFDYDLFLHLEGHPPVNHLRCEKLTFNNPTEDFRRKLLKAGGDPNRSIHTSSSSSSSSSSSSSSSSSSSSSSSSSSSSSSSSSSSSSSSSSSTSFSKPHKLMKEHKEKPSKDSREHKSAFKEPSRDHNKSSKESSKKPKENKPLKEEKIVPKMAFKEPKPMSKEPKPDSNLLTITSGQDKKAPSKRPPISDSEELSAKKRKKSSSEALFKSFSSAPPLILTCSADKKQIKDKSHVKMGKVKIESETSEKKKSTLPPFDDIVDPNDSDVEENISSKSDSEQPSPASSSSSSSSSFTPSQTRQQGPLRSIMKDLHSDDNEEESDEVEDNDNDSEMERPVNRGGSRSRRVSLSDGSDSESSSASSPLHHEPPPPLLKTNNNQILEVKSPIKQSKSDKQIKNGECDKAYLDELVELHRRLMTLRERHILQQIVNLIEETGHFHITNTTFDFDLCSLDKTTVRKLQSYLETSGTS
rRNA inh HTS: inhibits bacterial ribosomal RNA function over humanized ribosomes; E. coli WT GFP vs humanized-ribosome RFP mutants, fluorescence, 24 h; active compounds read low; DMSO median 0, no signal -100; GFP signal change (wild-type ribosome), % (test concentration not listed); 350,000 tested, 1.6% active; AID 720706;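 active = significant combined selectivity score with lowered wild-type GFP, culture density cut under 30%, mutant RFP and density less affected; inactive = any of these conditions unmet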; note: one replicate is shown; some compounds called inactive have numbers as strong as hits
FGF22 binding: FGF22 (human) thermal shift binding. Q9HCT0. recombinant FGF22 thermal shift, SYPRO orange fluorescence; percent of sucrose octasulfate shift, DMSO zero. calls only at 9.99 µM. 340,000 tested, 1.5% active. AID 651658;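 active = melting point raised past a set limit in the mean and every replicate; inconclusive = no clear call; three in four hits are not shown here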
Target sequence (Q9HCT0 whole entry, looked up): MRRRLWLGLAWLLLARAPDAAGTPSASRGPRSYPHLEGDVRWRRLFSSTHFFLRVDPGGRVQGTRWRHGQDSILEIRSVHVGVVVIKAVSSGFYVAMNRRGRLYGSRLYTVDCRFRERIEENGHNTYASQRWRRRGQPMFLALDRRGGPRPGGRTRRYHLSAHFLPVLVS
Ecoli growth: blocks Escherichia coli growth | OD600 absorbance (test concentration not listed) | OD600, 23 h; active compounds read low | 330,000 tested, 0.21% active | AID 1053175;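 active = OD600 absorbance below the run mean of sample wells minus 3.6 SD, in any replicate, cut at about 0.56 in these data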;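 note: stock transfer was 300 nL into about 60 µL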
T cruzi inh: T. cruzi replication inhibition | 300,000 tested, 1.4% active | AID 1885 | inhibition, % (concentration not given with the values) | T. cruzi beta-gal in NIH3T3, luminescence, 90 h;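 active = mean inhibition across valid replicates above about 55%, limit read from the data; inconclusive = mean below that limit but half or more replicates reach it; inactive = mean below it, under half of replicates reach it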;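 note: signal also drops with host cell toxicity which is not excluded here; 0% = plate median of DMSO wells and 100% = zero luminescence signal; higher percent means less beta-gal luminescence so fewer parasites; stock transfer was 50 nL into about 50 µL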
A1 inh: inhibitors of the anti-apoptotic protein A1, read as caspase activation | MEF A1-2A-BIM cells, Caspase-Glo 3/7 luminescence, 3 h; percent of clofoctol response, vehicle zero | caspase activation, % (concentration not given with the values) | 330,000 tested, 0.066% active | AID 2462;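 active = over half of replicate activation scores above 10%, or exactly half above 10 with the replicate mean above 10; inconclusive = replicate mean below 10 yet half the replicates above 10; inactive = over half of replicates below 10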;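 note: wells of about 30 µL received 50 nL stock; many hits fall short of the cut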
rRNA inh HTS OD600: second read-out of rRNA inh HTS, no call of its own (marks repeat the call); OD600 change, %; measured here: OD600 growth;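 optical density of the mix in the first replicate; 0 = DMSO median and -100 = no signal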
rRNA inh HTS RFP: also measured in rRNA inh HTS; calls as there; RFP signal change, %; measured here: RFP humanized mutant strains;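 first replicate; 0 = DMSO median and -100 = no signal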
An asterisk follows results filed as active; i = inactive; ? = inconclusive; . = not tested or not shown.

SMILES	Beta apoptosis	UCH37 inh	AF4-AF9 inh	rRNA inh HTS	rRNA inh HTS OD600	rRNA inh HTS RFP	FGF22 binding	Ecoli growth	T cruzi inh	A1 inh
CCCN1CCN(C(=O)C2CCN(S(=O)(=O)c3ccc4c(c3)NC(=O)C(C)S4)CC2)CC1 (centres undefined)	-4.5	-1.6	-1.6	11.9	3.3	1.9	i	0.672	3.3	-0.4
O=C(Cn1nnc(-c2cccs2)n1)NCCc1ccccc1	-7.9	0.9	.	.	.	.	.	0.76	-4.9	0.0
O=C1N/C(=C\c2ccc(O)cc2)C(=O)c2ccccc21	-1.3	87.3*	.	-0.5	-4.4	8.5	.	0.627	-7.3	-0.9
COc1ccccc1NC(=O)c1cc(S(=O)(=O)N2CCC3(CC2)OCCO3)ccc1F	-8.9	-0.6	-20.3	-4.6	6.8	-3.1	i	0.757	1.7	1.2
COc1ccc(NC(=O)CSc2nncn2C)c([N+](=O)[O-])c1	-6.9	1.7	-42.2	10.8	3.1	-8.1	i	0.708	-2.4	0.9
COc1ccc(C(=O)NCC(=O)NCC(=O)OCC(=O)c2ccc(Br)cc2)cc1	-1.2	2.1	-0.6	.	.	.	i	0.715	9.5	-1.7
N#CC(C(=O)CCN1C(=O)C2CC=CCC2C1=O)c1nc2ccccc2[nH]1 (centres undefined)	-0.5	3.7	.	.	.	.	.	0.72	6.5	-1.3
CCOc1ccc2nc(SC3CC(=O)N(c4ccc(OC)cc4)C3=O)sc2c1 (centres undefined)	-7.5	4.8	.	.	.	.	.	0.696	48.7	-0.4
COC(=O)c1ccc(S(=O)(=O)N2CCC(c3nc4ccccc4o3)CC2)cc1	0.1	4.8	.	.	.	.	.	0.671	-6.1	0.1
CCn1c(SCC(=O)c2[nH]c(C)c(C(C)=O)c2C)nnc1-c1ccccc1	-4.4	2.9	.	.	.	.	.	0.673	7.0	-0.4
CC(Oc1ccccc1)C(=O)NC1CCSc2ccccc21 (centres undefined)	0.6	3.2	0.5	0.6	-35.6	0.2	i	0.696	.	-1.5
CC(=O)N(CCC1(c2ccc(C)cc2)CCOC(C(C)C)C1)Cc1ccco1 (centres undefined)	-0.5	4.8	5.0	-20.1*	-7.9*	-4.6*	i	0.7	22.0	-0.7
C/C(=N\Nc1ccc2nncn2n1)c1ccc(Br)s1	2.7	.	1.1	12.8	9.2	0.0	.	.	1.9	0.9
COc1ccc(OCC(=O)NNC(=O)C2CCN(c3ncnc4sc(C)c(C)c34)CC2)cc1	-0.8	2.4	-1.2	-9.2	-26.1	-2.0	i	0.715	.	-1.4
C[C@@H]1O[C@@H](OC[C@H]2O[C@@H](Oc3c(-c4ccc(O)cc4)oc4cc(O)cc(O)c4c3=O)[C@H](O)[C@@H](O)[C@@H]2O)[C@H](O)[C@H](O)[C@H]1O	0.1	10.9	-1.6	-2.1	-1.7	-9.8	i	0.742	-11.8	0.1
CCc1nc2ccc(C(=O)N3CCN(c4cc(C)ccc4C)CC3)cc2nc1CC	-3.3	1.1	2.1	-4.3	-9.3	1.0	i	0.707	18.8	0.0
O=C(Nc1ccncc1)c1c(F)c(F)c(F)c(F)c1F	-4.5	1.0	-1.5	-13.4	-0.7	1.7	i	0.627	8.9	0.6
COc1ccc(N2CCN(C(=O)C3CCN(C(=O)c4ccccc4Cl)CC3)CC2)cc1	1.1	2.9	-1.2	-2.0	2.5	-0.9	i	0.671	-2.2	0.6
CC(=O)c1cccc(NC(=O)CC2CCCC2)c1	.	0.6	-1.7	6.2	8.2	0.3	i	0.712	-0.1	1.2
O=C(Nc1nc(-c2ccccc2)cs1)c1ccccc1NS(=O)(=O)c1ccc(F)cc1	90.0*	-53.7	.	.	.	.	.	0.679	-8.1	-0.2
CC(C)Sc1cc(Cl)nc(NC(=O)Nc2ccccc2)n1	4.1	0.2	-1.0	0.7	5.7	3.1	i	0.696	-1.2	-1.2
COc1cc(SC)ccc1C(=O)NCCCOC(C)C	-5.6	2.5	-0.9	4.7	3.1	1.4	i	0.678	-15.7	0.4
CC(C)CNC(=O)CC(=O)N/N=C/c1ccc(F)cc1	-6.1	.	-4.0	8.3	3.1	-10.0	i	.	1.8	0.0
O=C(CSc1nnc(NC(=O)c2cc(Br)ccc2Cl)s1)NCC1CCCO1 (centres undefined)	-2.3	0.1	-1.8	-2.1	-12.9	-5.4	i	0.728	-6.1	?
Fc1ccc(CNC(=S)NC2CCCCCC2)cc1	1.4	0.3	1.3	-55.9	-82.3	-30.6	i	0.614	1.0	0.7
Cc1sc2c(c1C)CN(CCN1CCOCC1)CN2C(=O)c1ccccc1	-6.6	0.3	0.4	8.6	4.1	-0.7	i	0.708	18.3	-3.6
CC(Nc1c([N+](=O)[O-])c(=O)oc2ccccc12)C(Cl)c1ccccc1 (centres undefined)	5.5	1.3	.	.	.	.	.	0.735	-1.3	-0.4
O=C(O)c1ccccc1Sc1ccccc1S(=O)(=O)NC1CCCCC1	-7.2	1.0	-2.3	-14.4	-8.4	-2.1	i	0.652	-1.7	-0.1
COc1cccc(CNC(=O)Cn2cc3c(n2)CCCCC3)c1	-3.2	2.0	-4.7	-1.4	-0.5	-0.8	i	0.721	-4.4	0.7
CC(=O)Nc1ccc(C(=O)COC(=O)c2nc3nc(C)cc(C)n3n2)cc1	-3.2	5.5	0.5	.	.	.	i	0.66	.	1.0
CCOc1ccc(S(=O)(=O)Nc2ncn[nH]2)cc1	-8.0	4.2	-2.3	8.4	10.5	-0.9	i	0.699	-10.8	0.6
CC(C)N1CCc2c(sc(NC(=O)CCS(=O)(=O)c3ccccc3)c2C(N)=O)C1	-24.6	1.2	-3.7	9.5	7.6	-2.0	i	0.7	18.9	-0.9
COc1ccc(-c2nnc(SCC(=O)NC3CC3)o2)c(OC)c1	.	0.3	-2.9	1.2	-4.2	-1.0	i	0.698	.	.
Cc1c(N2C(=O)C(=O)/C(=C(/O)c3ccc(Cl)cc3)C2c2ccccc2)c(=O)n(-c2ccccc2)n1C (centres undefined)	-1.5	10.9	.	.	.	.	.	0.722	-6.6	0.0
COc1ccc(Nc2ncc(F)c(N3CCOCC3)n2)cc1	-5.5	2.1	5.7	11.8	22.8	-2.3	.	0.703	-0.4	-5.3
CN1CCN(C2=Nc3c(Cl)cc(Cl)c4cccc2c34)CC1	5.1	8.5	7.8	-16.9	-18.4	0.7	i	0.618	43.1	1.8
CC(C)(C)NC(=O)CN(Cc1cccs1)C(=O)CNS(=O)(=O)c1ccccc1	-0.4	1.1	.	.	.	.	.	0.761	-12.7	1.1
O=[N+]([O-])c1ccc(Sc2n[nH]c(-c3ccncc3)n2)nc1	-0.9	13.0	-0.9	3.6	0.2	-10.6	i	0.636	-10.1	-0.9
Cc1cccc(CCN2C(N(C)C)=NC[C@@H]2C)c1	-9.4	-2.2	-3.2	9.6	1.8	-3.9	i	0.722	.	-1.3
O=P(COCCO)(c1ccccc1)c1ccccc1	.	5.6	.	.	.	.	.	0.818	-4.2	0.7
Cc1ccc(C(=O)CN2C(=O)NC3(CCOc4ccccc43)C2=O)s1 (centres undefined)	1.8	5.0	3.7	0.3	1.4	1.1	i	0.669	.	0.1
C=CCn1c(SCC(=O)Nc2ccc(-c3nc4ccc(C)cc4s3)cc2)nnc1-c1ccccc1	3.4	-290.2	.	.	.	.	.	0.709	10.9	-0.7
COC(=O)[C@]1(CC(C)C)N[C@H](c2ccc(SC3CCCCC3)cc2)[C@@H]2C(=O)N(C)C(=O)[C@@H]21	2.7	2.5	-0.5	4.8	-8.4	-7.3	i	.	.	-0.6
Cc1ccc(S(=O)(=O)NCc2ccc(C(=O)NCCN(Cc3ccccc3)C(C)C)cc2)cc1	17.9	0.2	2.2	-14.1	-13.4	-1.0	i	0.64	35.6	-0.6
C=CCNC(=O)CN1CCC(O)(c2ccc(F)cc2)CC1	-4.7	0.4	-23.3	7.1	1.5	-2.4	i	0.727	1.5	0.1
O=C(c1cccc(S(=O)(=O)Nc2ccc(F)cc2)c1)N1CCCC1	2.2	-1.4	-8.4	19.0	8.8	2.7	i	0.638	.	1.2
C=CCNC(=O)c1oc2ccc(S(=O)(=O)N3CCCCC3)cc2c1C	1.9	4.3	0.7	-10.0	5.1	3.1	i	0.665	-12.4	-0.3
Cc1ccnc(NC(=O)CCC(=O)c2cccs2)c1	-7.0	-2.9	-24.1	2.7	6.4	4.5	i	0.614	6.5	-9.4
O=C(Nc1ccc(-n2cccn2)cc1)C1CCCCN1Cc1cccc2cccnc12 (centres undefined)	9.3	0.7	1.8	-4.0	-4.2	6.3	i	0.66	31.3	-0.5
COc1ccc(-c2cn3ccccc3n2)cc1OC	10.5	-300.0	.	.	.	.	.	0.666	-13.9	-6.6
COC(=O)c1ccc(Oc2c(Cl)cccc2[N+](=O)[O-])cc1	-2.0	2.0	.	.	.	.	.	0.678	-13.4	1.0
CCc1cccc2sc(NC(=O)c3ccc(N4C(=O)CCC4=O)cc3)nc12	-0.4	-1.3	2.6	8.3	11.4	-0.6	i	0.814	-6.5	.
CC(O)/C=C/c1cccc[n+]1C (centres undefined)	-4.4	3.0	-6.0	27.2	4.0	0.3	i	0.709	.	0.0
CC1CCCCN1CCCNC(=O)CN1C(=O)c2cccnc2Oc2ccccc21 (centres undefined)	-3.9	1.5	-1.7	0.0	0.7	-5.1	i	0.663	1.8	-0.9
CCOc1ccc(NC(=O)CN(C)C(=O)c2ccc(OCC(=O)N3CCOCC3)c(OC)c2)cc1OCC	.	-0.9	-6.5	15.4	18.8	6.2	i	0.674	.	.
COc1ccc2c(c1)[nH]c1c(=O)n(/N=C/C3C(C)C=C(C)CC3C)c(=O)[nH]c12 (centres undefined)	53.5	.	-5.5	4.2	8.6	-1.6	i	.	-26.6	4.2
O=C(CCN1C(=O)c2ccccc2S1(=O)=O)Nc1ccccc1	-9.4	1.6	-0.1	9.6	4.4	0.5	i	0.667	-2.3	0.2
COCCOC(=O)/C(=C\c1cc(C(C)(C)C)c(O)c(C(C)(C)C)c1)C(C)=O	-12.0	6.8	-6.5	-2.5	-2.6	5.6	i	0.688	10.4	0.5
Cc1ccc(C)n1C1CCS(=O)(=O)C1 (centres undefined)	-12.8	0.7	.	.	.	.	.	0.697	-2.6	0.7
CCCCNC(=O)c1onc(CSc2ccncc2)c1C(=O)NCCCC	0.2	2.9	0.4	3.1	3.1	-0.7	i	0.715	16.8	0.6
COc1ccc(NC(=O)COc2ccc3oc(=O)cc(C)c3c2)cc1	0.6	-2.5	-0.7	20.9	13.2	3.6	i	0.636	5.5	0.6
O=C(CN1CCCCCC1)Nc1cccc2c1OCO2	-1.4	5.6	.	.	.	.	.	0.696	3.6	0.7

An excerpt; count on the stated rates, not on these rows.
